VACV Venus inh: inhibitors of vaccinia virus (Venus reporter); AID 720580; Vaccinia virus Venus reporter expression, fluorescence; Potency, µM (highest dose often 36.5 µM), without a hit: top-dose activity change, negative = inhibition, most hits filed as inhibitors; actives 0.46% (n = 330,000); active means well fitted inhibition curve with a large enough effect; inconclusive means small, poorly fitted or top-dose-only effect; inactive means no such curve, though single readings can be large or run the other way; tested in A549 cells; note: nearly all actives have a fitted effect of over 30% in size; inactives centre near -10
VACV mCherry inh: vaccinia inhibition (mCherry reporter). Potency, µM (series often up to 36.5 µM), inactives show at the highest dose activity change, negative = inhibition, usual class: inhibitors. actives 0.63% (n = 310,000). AID 720579. Vaccinia virus mCherry reporter infection, fluorescence; about a quarter of the inactives have no number; active = well fitted inhibition curve with a large enough effect; inconclusive = small, poorly fitted or top-dose-only effect; inactive = no such curve, though single readings can be large or run the other way; tested in A549 cells; note: nearly all actives have a fitted effect of over 35% in size; inactives centre near -10
Numbers without * were called inactive; i = inactive; ? = inconclusive; . = not tested or not shown; [ ] = dose if it differs, or a comment. % is set by controls: 0 for no effect and ±100 for the full control effect; potency is the fitted concentration of half-maximal effect.

SMILES	VACV Venus inh	VACV mCherry inh
Cc1ccccc1Oc1ncnc2oc(-c3ccccc3)cc12	-16%	.
C/C=C\C=C/C(=O)Nc1cccc(C2=NOC3(C2)C[C@@H](C(N)=O)N(C(=O)[C@H]2CCC(=O)N2)C3)c1 (stereo partly specified)	-2%	-14%
COC(=O)C1=C(C)NC(=O)/C1=C\c1cc(C)n(-c2ccccc2)c1C	-4%	?
CCc1ccc(NS(=O)(=O)c2ccc3[nH]cc(C(=O)NCC4CCCO4)c(=O)c3c2)cc1 (stereo unspecified)	-6%	-14%
CC1CCN(CC2C(=O)O[C@@H]3C[C@@]4(C)CCC[C@H](C)C4=C[C@H]23)CC(C)(C)C1 (stereo partly specified)	?	?
CCC(C)NC(=O)CCc1nnc2ccc(N3CCC(C)CC3)nn12 (stereo unspecified)	?	-5%
O=C(C(=O)N1CCC(Cc2ccccc2)CC1)c1cccs1	-18%	-29%
COc1ccc(-c2nnc(Nc3ccc(OC)c(C(N)=O)c3)c3ccccc23)cc1	-4%[7.34 µM]	-10%[7.34 µM]
COc1ccc(Cn2c(SCc3ccc(C(=O)NC(C)C)cc3)nc3cccnc32)cc1	-2%	-13%
Cc1cccc(C(=O)NNC(=O)c2cc3cc4ccccc4nc3s2)c1	-8%	.
N#Cc1ccccc1NC(=O)c1cnc(N2CCOCC2)c2ccccc12	-11%	-2%
Brc1ccccc1OCCCCCN1CCOCC1	-12%	-15%
NC(=O)c1cc(N=Nc2c(N)[nH]n(-c3c(Cl)cc(Cl)cc3Cl)c2=O)ccc1Cl	3%	-6%
O=C(COC(=O)CCCN1C(=O)c2ccccc2C1=O)Nc1ncc(Cl)cc1Cl	-6%	.
COc1ccc(S(=O)(=O)N2CCN(Cc3cccc([N+](=O)[O-])c3)CC2)cc1	-11%	i
CC1CCC(NC(=O)C2(C)Cc3ccccc3C(=O)N2Cc2ccc(F)cc2)CC1 (stereo unspecified)	-9%	-3%
CCOC(=O)c1c(NC(=O)COC(=O)CNC(=O)c2ccco2)sc(C(C)=O)c1C	-16%	i
Cn1ccnc1SCC(=O)c1ccc(Br)cc1	-8%	i
O=C(Nc1ccc(Br)cc1)C1C2C=CC3(O2)C1C(=O)N(CCN1CCCCC1)C3C(=O)NC1CCCCC1 (stereo unspecified)	-4%	i
Fc1ccccc1/C=N/N1CCN(Cc2ccccc2Cl)CC1	-15%	-13%
O=C(c1cccc(OC2CCN(Cc3ccc(F)cc3Cl)CC2)c1)N1CCCC1	-9%	-3%
Cc1cc(NC(=O)Cn2cnc3c(nnn3-c3cccc(F)c3)c2=O)no1	-2%	-14%
CC(C)NC(=O)NNC(=O)Cn1nnc(-c2cccc(Cl)c2Cl)n1	3%	-10%
COc1ccc(/C=C/C(=O)NC(=S)Nc2ccc(S(=O)(=O)Nc3nccnc3OC)cc2)cc1	-5%	-5%
O=C(NC1(C(F)(F)F)NC(=O)N(CC2CCCCC2)C1=O)c1ccco1 (stereo unspecified)	0%	i
COc1ccc(-c2cn(-c3ccccc3)nc2CO)cc1	-10%	-16%
COc1ccc(O)c(C2Nc3ccccc3-n3c(-c4ccccc4)c4c(=O)n(C)c(=O)n(C)c4c32)c1 (stereo unspecified)	-23%	?
CCCNC(=O)COC(=O)/C=C/c1ccco1	-2%	-13%
Cc1csc2nc(COC(=O)c3cccc(NC(=O)COc4ccc(Cl)cc4)c3)cc(=O)n12	-7%	-10%
CC[C@]12c3[nH]c4ccc(OC)cc4c3CCN1C(=O)C(CC(=O)NCc1cccc(C(F)(F)F)c1)C[C@@H]2C(=O)N1CCN(C(=O)c2ccco2)CC1 (stereo partly specified)	-15%	i
Cc1cccc(C)c1NC(=O)C1(C)CN(S(C)(=O)=O)CC(=O)N1Cc1ccco1 (stereo unspecified)	-13%	-10%
Cc1nc(CNS(=O)(=O)c2ccc3c(c2)OCCO3)cs1	-11%	i
C/C(=N\N1CCN(C)CC1)c1ccc(Cl)c(Cl)c1	-4%	-5%
COc1ccc(Cl)cc1NC(=O)Cn1c(=O)n2nc(C)nc2c2ccccc21	-3%	-13%
Cc1ccc(S(=O)(=O)Oc2ccc(N3C(=O)C4C5CCC(C5)C4C3=O)cc2)cc1 (stereo unspecified)	-7%	i
CCCC1NC(=O)c2cccnc2-n2c1nc1ccccc1c2=O (stereo unspecified)	-9%	i
CCN1CCN(CCCNC(=O)c2ccc3c(Cl)c4c(nc3c2)CCCC4)CC1	13µM*	?
COc1ccc(C(=O)Nc2cc(C)c3c(=O)oc4ccccc4c3n2)cc1	-29%	-8%
COc1cc(C2CC(=O)N3CN(Cc4ccccc4)CSC3=C2C#N)ccc1OCc1ccccc1 (stereo unspecified)	-3%	-17%
Cc1nn(CCC(=O)N2CCN(S(=O)(=O)c3ccc(Cl)cc3)CC2)c(C)c1C	2%	-16%
COc1ccc(C(=O)Nc2nc3ccc(S(C)(=O)=O)cc3s2)cc1OC	0%	-5%
Cn1c(=O)oc2cc(S(=O)(=O)NCCN3CCN(c4ccccc4F)CC3)ccc21	-4%	?
O=C(CSc1ncnc2nc[nH]c12)Nc1nnc(SCc2ccc(Cl)c(Cl)c2)s1	4%	i
COc1ccc(-c2nc(-c3cccc(C)c3)nc(N3CCN(C)CC3)c2C#N)cc1	?	.
COc1ccccc1NC(=O)CSc1nc2c(sc3ccccc32)c(=O)n1CCN(C)C	-12%	-25%
COc1ccc2c(c1)sc(=N)n2C	0%	i
CCOc1ncccc1C(=O)OCC(=O)Nc1cc(S(=O)(=O)N2CCCCC2)ccc1Cl	-4%	-14%
CN1CCN(CCCN(Cc2cccs2)C(=S)Nc2ccc(Cl)cc2)CC1	-22%	-4%
CC(C)CCN1CCC(CN2C(=O)C(=O)NC[C@@H]2Cc2ccccc2)CC1	-2%	i
COCCn1c(=NC(=O)c2ccc(S(=O)(=O)N3CCOCC3)cc2)sc2cc(S(N)(=O)=O)ccc21	-24%	-15%

(more compounds)
SMILES	VACV Venus inh	VACV mCherry inh
COc1ccccc1OCC(=O)NNC(=O)c1cnccn1	-18%	-18%[1.46 µM]
O=C(CCBr)N1CCN(C(=O)CCBr)CC1	-13%	-1%
Cc1onc(-c2ccccc2)c1C(=O)OCc1nnc(-c2ccccc2)o1	5%	12%
NC(=O)c1ccc(NC(=O)c2cncn2-c2ccccc2)cc1	-4%	-7%
CC(=NO)C1CCC2C3CCC4=CC(=NO)CCC4(C)C3C(=O)CC12C (stereo unspecified)	3%	-6%
NC(c1ccccc1)c1csc(Nc2ccc(C(=O)c3ccccc3)cc2)n1 (stereo unspecified)	-19%	-30%
O=C(COc1ccc(F)cc1Cl)Nc1cc(S(=O)(=O)N2CCOCC2)ccc1N1CCCCC1	-17%	-8%
CC(C)(C)OC(=O)CC[C@@H](C(=O)NCCCCCCCCCCC(=O)N1CCN(C(=O)OC(C)(C)C)CC1)n1cc(CCCCCNC(=O)OC(C)(C)C)nn1	?	-19%
CCOc1ccccc1CNC(=O)c1cc(-c2ccc(C)c(C)c2)nc2ccccc12	-11%	-10%
NC(=O)c1nc(-c2cccs2)nc2c1[nH]c(=O)n2-c1ccc(F)cc1	-17%	i

A second format for part of the listing above:
canonical_smiles | VACV Venus inh | VACV mCherry inh
NC(c1ccccc1)c1csc(Nc2ccc(C(=O)c3ccccc3)cc2)n1 (stereo unspecified) | -19% | -30%
CC(=NO)C1CCC2C3CCC4=CC(=NO)CCC4(C)C3C(=O)CC12C (stereo unspecified) | 3% | -6%
O=C(CCBr)N1CCN(C(=O)CCBr)CC1 | -13% | -1%
CC(C)(C)OC(=O)CC[C@@H](C(=O)NCCCCCCCCCCC(=O)N1CCN(C(=O)OC(C)(C)C)CC1)n1cc(CCCCCNC(=O)OC(C)(C)C)nn1 | ? | -19%
Cc1onc(-c2ccccc2)c1C(=O)OCc1nnc(-c2ccccc2)o1 | 5% | 12%

Going on with the list.
SMILES	VACV Venus inh	VACV mCherry inh
Cc1sc2ncnc(OCC(=O)Nc3ccc4c(c3)OCCO4)c2c1C	-10%	-4%
Cc1cc(NC(=O)CSc2c3c(nc4ccccc24)CCC3)no1	-22%	-6%
c1ccc(Nc2nnc(SCc3cccc4ccccc34)s2)cc1	-14%	.
CCOc1ccc(NC(=O)c2ccc(Br)o2)c([N+](=O)[O-])c1	2%	0%
Cc1cc(C)c(NC(=O)CN2C(=O)NC(Cc3ccccc3)C2=O)c(C)c1 (stereo unspecified)	-10%	4%
Cc1cccc([C@@H]2[C@@H]3C(=O)N(Cc4ccccc4)C(=O)[C@@H]3[C@]3(CC(C)C)C(=O)N(c4cccc(Br)c4)C(=O)N23)c1	-14%	-1%
Cc1cccn2c(=O)c3cc(C(=O)NCc4ccco4)c(=N)n(CCc4ccccc4)c3nc12	15%	i
Cc1ccc(S(=O)(=O)c2cnc(SCC(=O)Nc3ccccc3C(F)(F)F)[nH]c2=O)cc1C	10%	5%
Cc1cccc(C)c1NC(=S)Nc1ccc(Cl)c(Cl)c1	-1%	-11%
CC1CCCN(C(=O)CCc2ccccc2)C1 (stereo unspecified)	-3%	i
O=P(O)(OCc1ccccc1)OCc1ccccc1	-7%	i
Clc1ccc(-c2nc(-c3cnccn3)no2)cc1	-11%[7.34 µM]	i[7.34 µM]
Cc1ccc(S(=O)(=O)N2CCSC2)cc1C	-6%	i
COc1ccccc1-n1c(CNC(=O)c2cccc([N+](=O)[O-])c2C)n[nH]c1=S	-16%	i
CCN(CC)C(=O)c1nc(-c2cccc3ccccc23)no1	-17%	i
Cc1ccccc1OCCCn1cc(C(=O)C(=O)N2CCOCC2)c2ccccc21	-8%	-11%
O=C(Cn1ncn2nc(-c3cccs3)cc2c1=O)NCc1ccc(Cl)cc1	-8%	-7%
O=C(CCN1C(=O)C2CCCCC2C1=O)Nc1ccc(OC(F)F)cc1 (stereo unspecified)	-9%	-18%
CCCCc1cc(=O)oc2cc(OCC(=O)N3CCC(C(N)=O)CC3)ccc12	4%	43%[activator]
O=C(N[C@H]1CC[C@H](CC(=O)N2CCCCC2)O[C@@H]1CO)c1cccc(F)c1	-7%	2%

Random excerpt: 4 compounds from above
SMILES	VACV Venus inh	VACV mCherry inh
CC(C)(C)OC(=O)CC[C@@H](C(=O)NCCCCCCCCCCC(=O)N1CCN(C(=O)OC(C)(C)C)CC1)n1cc(CCCCCNC(=O)OC(C)(C)C)nn1	?	-19%
COc1ccccc1-n1c(CNC(=O)c2cccc([N+](=O)[O-])c2C)n[nH]c1=S	-16%	i
COc1ccc(/C=C/C(=O)NC(=S)Nc2ccc(S(=O)(=O)Nc3nccnc3OC)cc2)cc1	-5%	-5%
CCCCc1cc(=O)oc2cc(OCC(=O)N3CCC(C(N)=O)CC3)ccc12	4%	43%[activator]

Further entries:
SMILES	VACV Venus inh	VACV mCherry inh
Cc1c(C)c2ccc(OCC(=O)NC3CCN(Cc4ccccc4)CC3)c(C)c2oc1=O	-9%	-10%
Cc1cccc(NC(=O)CCn2cnc3ccccc3c2=O)c1	-19%	i
CCOc1ccccc1NC(=O)COC(=O)/C=C/c1ccc(OC)c(OC)c1	-16%	-18%
CNc1cncc(-c2ccc(OC)c(OC)c2)n1	-1%	6%
Cc1cccc(-n2c(C)cc(/C=N\NC(=O)c3cccs3)c2C)c1	24%	?
Brc1ccc2oc(-c3ccn[nH]3)cc2c1	-5%	-7%
CC(C)(C)C(=O)NC(=S)Nc1ccccc1F	-19%	0%
Cc1cccc(NC(=S)N(CCc2ccncc2)C(C)C)c1C	-17%	-17%
CC(C)(C)OC(=O)N1CCC(c2c(C(=O)Nc3ccc4c(c3)OCO4)cnn2-c2ccc(F)cc2F)CC1	-6%	-5%
COc1ccc(CCN(C)C(=O)COc2ccc(N(C)S(=O)(=O)c3ccc(C)cc3)cc2)cc1OC	-15%	-27%
N#CC(c1ccccc1)C1CCN(Cc2ccccc2)CC1 (stereo unspecified)	-10%	-4%
COCCNC(=S)N/N=C(\C)c1cccc(C(F)(F)F)c1	-5%	-15%
COCCNC(=O)c1ccc(CSc2nc3ccncc3n2Cc2ccccc2)cc1	7%	-2%
Cc1ccc(S(=O)(=O)N2Cc3ccccc3CC2C(=O)Nc2cc(C)on2)cc1 (stereo unspecified)	-9%	i
Cc1ccccc1S(=O)(=O)NC(=O)C1(C)CCN1C(=O)Cc1ccc(Cl)cc1Cl (stereo unspecified)	-6%	-5%
Cc1ccc(C(=O)NCC(=O)N(C)Cc2ccc(Cl)cc2Cl)s1	-19%	-11%
COc1ccccc1C1C2=C(N=c3s/c(=C/c4cccc(OCC(=O)O)c4)c(=O)n31)c1ccccc1CC2 (stereo unspecified)	-9%	-14%
CCC(C(=O)N1CCN(c2ccccc2)CC1)n1nc(C)n2c(cc3sccc32)c1=O (stereo unspecified)	-23%	-21%
CCN(CC)c1ccc(S(=O)(=O)N2CCOCC2)cc1NC(=O)COC(=O)C1=COCCO1	-13%	-13%
CCC(C)C1Nc2ccc(C(=O)NCCc3ccc(OC)c(OC)c3)cc2NC1=O (stereo unspecified)	?	-28%
CCO[C@H]1OC(C(=O)NCc2nc3ccccc3[nH]2)=C[C@@H](c2ccc3c(c2)OCO3)[C@@H]1CCCO	-18%	-1%
O=C(c1ccccc1)C1OC1C(=O)c1ccccc1 (stereo unspecified)	-29%	?
CCn1c(=O)c(=O)[nH]c2cc(C(=O)NC3CCCC3)ccc21	5%	8%
CCOC(=O)c1ccc(NC(=O)CCc2nc3cccnc3n2Cc2cccs2)cc1	-9%	-11%[7.34 µM]
Cc1cc(C)c(NC(=O)C2CCN(c3nnc(C)c4c(C)n(-c5ccccc5)nc34)CC2)c(C)c1	-2%	-16%
O=C(CSc1cc(Cl)ccc1Cl)NCCCn1ccnc1	-25%	-24%
CCOC(=O)Cc1cc(=O)n2[nH]c(C(C)(C)C)cc2n1	4%	i
CCC(C)N1CC(C(=O)NC2CCCCC2)CC1=O (stereo unspecified)	-2%	.
COc1ccccc1-c1nnc(-c2ccc(F)cc2)o1	-15%	i
